Cruzain Triton = qHTS Assay for Promiscuous and Specific Inhibitors of Cruzain (with detergent). Cruzipain (Trypanosoma cruzi), P25779. purified cruzain, Z-FR-AMC fluorescence, 0.01% Triton. Potency, µM, for inactives: max response, negative = inhibition, usual class: inhibitors. actives 0.43% (n = 200,000). AID 1478, 2009; active = well fitted curve in the direction sought with a large enough effect; inconclusive = small, poorly fitted or top-dose-only effect, or another doubt; inactive = no such curve, though single readings can be large; an effect the other way counts as inactive or inconclusive;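 also: plate controls were neutral wells for no effect and buffer without enzyme for full effect; nearly all actives have a fitted effect of over 40% in size; top concentration of the series not given in the record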
Target sequence (P25779 123-467 limits assumed): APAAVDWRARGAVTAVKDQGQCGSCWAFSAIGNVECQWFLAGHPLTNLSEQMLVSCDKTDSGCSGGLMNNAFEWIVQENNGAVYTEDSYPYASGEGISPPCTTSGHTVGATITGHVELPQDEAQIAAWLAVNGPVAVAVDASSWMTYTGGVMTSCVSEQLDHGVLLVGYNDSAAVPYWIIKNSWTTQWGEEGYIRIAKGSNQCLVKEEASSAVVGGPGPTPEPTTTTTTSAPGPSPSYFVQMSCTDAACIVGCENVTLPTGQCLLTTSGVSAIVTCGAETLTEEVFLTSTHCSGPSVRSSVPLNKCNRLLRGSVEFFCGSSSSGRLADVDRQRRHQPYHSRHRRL
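Detergent-containing run (0.01% Triton X-100) in acetate buffer pH 5.5 with 5 mM DTT: enzyme at 1.5 nM final, 15 min compound preincubation at room temperature, then 2 uM Z-FR-AMC substrate. Activity taken as 60 s fluorescence increase at 360/450 nm.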
NS1 inh = qHTS Assay for Inhibitors of Influenza NS1 Protein Function; S. cerevisiae slowed by influenza A NS1, growth recovery by OD600; Potency, µM (highest dose often 46.1 µM), for the others: at the highest dose activity, positive = more growth; actives 0.4% (n = 270,000); AID 2326, 2010; also: actives are rising curves; nearly all actives have a fitted effect of over 50% in size
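In this qHTS, NS1 from influenza A is expressed in budding yeast, where it slows growth. Cells are switched from glucose to 2% galactose medium (pH 6.0, -URA), treated with compound, and growth recovery is read at OD600.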
2A StopGo = High Throughput Screening for Foot and Mouth Disease Virus Antivirals; human cells with a luciferase reporter of 2A StopGo recoding; control for the full effect not named in the record; Potency, µM (top dose mostly 57.9 µM), inactives show top-dose signal change, negative = less light; actives 1.2% (n = 410,000); AID 1159524, 2015; active = well fitted falling curve with a large enough effect; inconclusive = small, poorly fitted or top-dose-only effect; inactive = no such curve, though single readings can be large or run the other way; tested in HEK293T cells; also: % is scaled to controls: 0 for no effect and ±100 for the full control effect; nearly all actives have a fitted effect of over 45% in size; luciferase light after 4 h
Lassa entry inh = qHTS for Inhibitors of binding or entry into cells for Lassa Virus. Lassa virus pseudotype entry inhibition, cell reporter; control for the full effect not named in the record. Potency, µM (top dose mostly 37.9 µM), without a hit: at the top dose activity change, negative = inhibition, hits mostly inhibitors. actives 1.2% (n = 300,000). AID 540256, 2011; active means well fitted inhibition curve with a large enough effect; inconclusive means small, poorly fitted or top-dose-only effect, or effect the other way; inactive means flat fitted curve, though single readings scatter; tested in HEK293 cells; also: % is scaled to controls: 0 for no effect and ±100 for the full control effect; nearly all actives have a fitted effect of over 50% in size; luciferase read-out
SARS PLP yeast = qHTS of Yeast-based Assay for SARS-CoV PLP; S. cerevisiae expressing SARS-CoV PLpro, growth rescue; control for the full effect not named in the record; Potency, µM (doses to about 32.9 µM), for inactives: at the highest dose activity, positive = growth rescue; actives 0.19% (n = 330,000); AID 485353, 2010; also: 0% is about no effect; nearly all actives have a fitted effect of over 55% in size; growth read by luminescence after 48 h
Cruzain inh noDet = qHTS Assay for Promiscuous and Specific Inhibitors of Cruzain (without detergent). Cruzipain (Trypanosoma cruzi), P25779. purified cruzain, Z-FR-AMC fluorescence, no detergent. Potency, µM, without a hit: max response, negative = inhibition, hits mostly inhibitors. actives 2.3% (n = 200,000). AID 1476, 2009; active = well fitted curve in the direction sought with a large enough effect; inconclusive = small, poorly fitted or top-dose-only effect, or another doubt; inactive = no such curve, though single readings can be large; an effect the other way counts as inactive or inconclusive;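 also: plate controls were enzyme without inhibitor for no effect and buffer without enzyme for full effect; nearly all actives have a fitted effect of over 40% in size; top concentration of the series not given in the record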
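Detergent-free condition (0.00005% Triton X-100) in acetate buffer pH 5.5 with DTT. 1.5 nM enzyme and compound were pre-mixed 15 min, then 2 uM Z-FR-AMC substrate added; reaction progress from fluorescence change between first and third reads (60 s).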
RE007 growth inh = qHTS Assay for Inhibitors of the HIV-1 protein Vpr; S. pombe RE007 Vpr strain, BacTiter-Glo ATP luminescence, 24 h; control for the full effect not named in the record; Potency, µM (top dose mostly 92.2 µM), inactives show top-dose activity change, negative = less growth; actives 0.21% (n = 360,000); AID 651644, 2012; active = well fitted falling curve with a large enough effect; inconclusive = small, poorly fitted or top-dose-only effect; inactive = no such curve, though single readings can be large or run the other way;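 also: % is scaled to controls: 0 for no effect and ±100 for the full control effect; nearly all actives have a fitted effect of over 50% in size; the assay follows cell death caused by Vpr and the record does not say whether a fall means rescue or toxicity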
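Fission yeast strain RE007, carrying one chromosomally integrated HIV-1 vpr copy, was seeded at OD 0.01 in PMG+AL medium with 23 nL pinned compound. After 24 h at 30 °C and 99% humidity, viability was read by BacTiter-Glo luminescence.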
Marburg entry inh = qHTS for inhibitors of binding or entry into cells for Marburg Virus. Marburg virus pseudotyped entry inhibition, cell reporter; control for the full effect not named in the record; about a third of the inactives were read at about 46 µM. Potency, µM (series often up to 37.8 µM), inactives show at the top dose activity change, negative = inhibition, hits mostly inhibitors. actives 1.8% (n = 300,000); active = well fitted inhibition curve with a large enough effect; inconclusive = small, poorly fitted or top-dose-only effect, or effect the other way; inactive = flat fitted curve, though single readings scatter; tested in HEK293 cells; about a fifth of its hits are not listed in these tables; also: % is scaled to controls: 0 for no effect and ±100 for the full control effect; luciferase read-out
* marks the source's active call; other numbers are inactive results; ? = inconclusive; . = no result given; & = joins results of further samples; [ ] = remark or other dose. Unless noted, calls follow the shape of the dose curve; as a rule, active means well fitted rising curve with a large enough effect; inconclusive means small, poorly fitted or top-dose-only effect; inactive means no such curve, though single readings can be large or run the other way. Potency is read from the fitted curve at half-maximal effect. This is a random part of the collection, and some 4.7% of all compounds hit somewhere here.

SMILES	Cruzain Triton	NS1 inh	2A StopGo	Lassa entry inh	SARS PLP yeast	Cruzain inh noDet	RE007 growth inh	Marburg entry inh
Cc1cccc(NC(=O)c2cc(S(=O)(=O)N3CCCCC3)ccc2Cl)n1	.	.	-6%	-10%	-1%	.	-8%	-25%[46.1 µM]
CCCCn1c(CNC(=O)Cc2ccccc2)nc2ccccc21	-2.9%	-12%	11%	.	-2%	-6%	0%	.
Cc1ccccc1-c1nc2ccccc2[nH]1	2.2%	-11%	51%[activator]	-4%	-22%	-2%	-29%	?
Cc1nccc(-c2ccc(-n3cnc4ccccc43)cc2)n1	-2.9%	-9%	20%	3%	-1%	-2%	1%	17%
CC(C)OC(=O)c1cccnc1SCC(=O)N(C)c1ccccc1	-3.1%	-63%	4%	-7%	7%	7%	13%	-5%
CCOC(=O)C1(CCCc2ccccc2)CCN(C(=O)C2CCCN(C(N)=O)C2)CC1 (stereo unspecified)	.	-6%	8%	5%[46.1 µM]	-1%	.	3%	?
Cc1ccc(CC(=O)OCC(=O)NC2CCCC(C)C2C)cc1C (stereo unspecified)	-0.2%	-10%	1%	?	-12%	?	-6%	10%
Cn1c(=NC(=O)CCS(=O)(=O)c2ccccc2)sc2cc(F)ccc21	.	.	-13%	-1%	-6%	.	1%	-29%
COc1cc(C)c(NC(=O)Cc2ccsc2)cc1OC	.	20%	-5%	3%	6%	.	-18%	2%[46.1 µM]
O=C(NN1C(=O)C2C3C=CC(C3)C2C1=O)C(O)c1ccccc1 (stereo unspecified)	.	2%	-9%	.	0%	.	3%	.
O=C(CSc1nncn1-c1ccccc1)NC1CCCCC1	.	.	-1%	?	-4%	.	6%	1%
O=c1cnnc(Nc2cccc(C(F)(F)F)c2)[nH]1	.	.	12%	-1%	-2%	.	-6%	9%
CN(C)C(CNC(=O)C1CCCN1C(=O)c1cccs1)c1ccccc1 (stereo unspecified)	.	.	1%	?	0%	.	-6%	-4%[46.1 µM]
Cn1c(=O)c2c(nc(CCC3CCCC3)n2C)n(C)c1=O	.	.	-13%	-5%	.	.	-24%	?
CC(=O)Nc1ccc(S(=O)(=O)N2CCC(C(=O)NCCC(=O)NCc3ccccc3)CC2)cc1	.	-7%	-10%	.	-2%	.	-6%	.
Cc1nn(C)c2c1c(-c1ccccc1)cc(=O)n2Cc1ccc(F)cc1Cl	-1.6%	.	-21%	-11%[46.1 µM]	.	-14%	.	.
Cc1cc(C(=O)N/N=C/c2c(C)nn(-c3ccccc3)c2C)n[nH]1	.	0%	7%	-17%[46.1 µM]	0%	.	-1%	5%[46.1 µM]
Cc1cc(OCc2cc(C(=O)NCc3cc(C(C)C)no3)no2)cc(C)c1Cl	.	-5%	-7%	5%	-8%	.	10%	?
COc1cc(C)c(S(=O)(=O)NCCCn2ccnc2)cc1C	.	?	52%[activator]	.	8%	.	3%	.
C=CCOC(=O)C1=C(C)NC(=O)NC1/C=C/c1ccccc1 (stereo unspecified)	2.5%	-6%	-7%	-10%	-7%	?	3%	-25%
N#Cc1cc(S(=O)(=O)N2CCOCC2)ccc1N1CCOCC1	.	8%	-10%	3%[46.1 µM]	3%	.	8%	3%[46.1 µM]
CS(=O)(=O)N1CCCC(C(=O)Nc2ccccc2F)C1 (stereo unspecified)	.	-2%	7%	13%[46.1 µM]	-2%	.	-12%	3%[46.1 µM]
Cc1c(NC(=O)C(CC(=O)O)NCc2ccco2)c(=O)n(-c2ccccc2)n1C (stereo unspecified)	-1.7%	-2%	-21%	-3%	?	-4%	2%	?
Cc1ccc(C)c(NS(=O)(=O)c2ccc(-c3ccc(=O)[nH]n3)o2)c1	.	-6%	0%	.	0%	.	-1%	.
CCOc1ccc(S(=O)(=O)N2CCOCC2)cc1[N+](=O)[O-]	.	5%	23%	.	1%	.	0%	.
O=C(NCc1ccccc1)C(=O)NCC1OCCN1S(=O)(=O)c1ccc2c(c1)OCCO2 (stereo unspecified)	-5.8%	-25%	0%	-4%	-7%	4%	-3%	3%
COC(=O)c1ccc(N(CC(=O)NC2CCCC2)C(=O)c2ccc(C)s2)cc1	.	-11%	-19%	0%[46.1 µM]	-1%	.	6%	-29%[46.1 µM]
COC(=O)CCC(=O)Nc1ccc(S(=O)(=O)Nc2nc(C)cc(C)n2)cc1	.	5%	31%[activator]	21%	5%	.	-1%	1%
CCN(CC)C(=O)c1sc(N)c(C#N)c1C	3.6%	-9%	-19%	?	6%	-5%	20%	1%
Cc1nc2c(c(C)nn2-c2ccccc2)c(C)c1C	.	.	-5%	-10%	.	.	-1%	?
CC(O)CNc1nc2ccccc2n1CC(=O)NC12CC3CC(CC(C3)C1)C2 (stereo unspecified)	.	.	-4%	-20%[46.1 µM]	0%	.	7%	-24%[46.1 µM]
CCn1c(-c2ccc(Cl)cc2)n[nH]c1=S	1.8%	-15%	-20%	4%	?	-4%	-9%	14%
COc1ccc(CNS(=O)(=O)CCNC(=O)c2cccc(OC)c2)cc1	.	.	-14%	-2%	2%	.	-1%	16%
COc1ccc(CN2CCCC(N3CCN(c4ccc(OC)cc4)CC3)C2)cc1 (stereo unspecified)	.	7%	0%	.	-2%	.	-12%	.
COc1cc2[nH]c(=O)n(Cc3ccc(C(=O)N4CCN(c5cccc(C)c5C)CC4)cc3)c(=O)c2cc1OC	0.5%	.	-1%	-2%[46.1 µM]	.	-8%	.	12%[46.1 µM]
Cc1ccnn1-c1ccc(C(=O)OCC(=O)Nc2ccc(F)cc2)cc1	.	.	73%[activator]	-4%	-10%	.	-8%	?
CC(=O)c1ccc(NC(=O)CCNS(=O)(=O)c2cccc3nonc23)cc1	-3.8%	-24%	-5%	-1%	-5%	-8%	-15%	-13%
O=C(N/N=C\c1ccc(Cl)s1)c1ccc(Cn2cccn2)o1	-6.1%	-4%	9%	?	1%	5%	-9%	8%
Cc1cc(C(=O)Nc2cccnc2)cs1	3.3%	-9%	30%	40%[14.3 µM]	5%	-2%	-3%	10%
CC1Cn2c(C(=O)NCc3cccc(Br)c3)cc3cccc(c32)S1 (stereo unspecified)	-9.0%	.	-19%	10%[46.1 µM]	.	?	.	.
COC(=O)c1ccccc1S(=O)(=O)N(Cc1ccco1)Cc1cc2cc(OC)ccc2[nH]c1=O	-6.3%	-6%	-26%	-15%[14.3 µM]	-1%	2%	3%	?
CCN(CC)CCCNC(=O)CCC(=O)NNc1nc2ccccc2c2nc(C)nn12	0.9%	.	-7%&-15%	18%	1%	?	22%	3%
COc1ccc(/C=C2\Sc3ccc(C(=O)NCc4cccnc4)cc3N(C)C2=O)cc1OC	.	.	?	?	4%	.	0%	?
CC1CCCC(NC(=O)c2ccc3c(=O)n(CC4CCCO4)c(=O)[nH]c3c2)C1C (stereo unspecified)	-3.3%	-8%	?	?	-5%	8%	6%	?
COCCNC(=S)N(CCc1c(C)[nH]c2ccc(C)cc12)Cc1ccco1	.	.	12%	-30%[46.1 µM]	-1%	.	5%	?
NS(=O)(=O)c1ccc(CNC(=O)c2ccc3ccccc3n2)cc1	.	-8%	-14%	.	-2%	.	11%	4%[46.1 µM]
O=C1CC(C(=O)Nc2ccccc2)S/C(=N\N=C\c2ccco2)N1 (stereo unspecified)	-2.9%	9%	-12%	?	17%	?	2%	19%
Cc1ccccc1-n1ncc2c1CC(C)(C)CC2NC(=O)CCCN1CCCC1=O (stereo unspecified)	.	14%	12%	2%	9%	.	-13%	10%
Cc1cccc(NC(=O)CSCc2cc(=O)n3c(C)csc3n2)c1C	.	-1%	-7%	.	2%	.	7%	.
O=C(NC1CC(=O)N(c2ccc(Cl)cc2)C1)c1ccc(S(=O)(=O)N2CCCC2)cc1 (stereo unspecified)	-0.7%	.	-27%	-3%[46.1 µM]	.	3%	.	.
O=C(O)c1cc(Cl)ccc1OS(=O)(=O)c1ccc(Cl)s1	.	.	-17%	?	1%	.	3%	3%
NC(=O)[C@H]1CC2(CC(c3cccc(NC(=O)COc4ccc(Cl)cc4)c3)=NO2)CN1C(=O)CC(c1ccccc1)c1ccccc1 (stereo partly specified)	.	7%	-7%	.	1%	.	37%	.
CN(c1ccccc1C(=O)O)S(=O)(=O)c1ccc2[nH]c(=O)oc2c1	-0.8%	.	-14%	?	-8%	6%	.	?
CCOc1ccc(-c2nc(Cn3ccn4nc(-c5ccc(OCC)c(Cl)c5)cc4c3=O)c(C)o2)cc1	-0.1%	.	-21%	-3%[46.1 µM]	.	4%	.	13%[46.1 µM]
CC(C)(C)C1CCc2[nH]c3ccccc3c(=O)c2C1 (stereo unspecified)	4.9%	-278%	25%	?	-42%	-4%	?	-21%
N#CCCN1CCNCC1	7.6%	6%	-11%	-6%	1%	1%	-8%	?
CCOC(=O)C1(Cc2ccc(OC)cc2)CCN(C(=O)C2=CCCC2)CC1	.	-7%	1%	-24%[46.1 µM]	0%	.	-11%	?
CC1CCN(C(=O)c2ccc(NS(C)(=O)=O)cc2)CC1	8.2%	2%	7%	-27%	.	8%	4%	25%
CCOC(=O)c1nnn(-c2nonc2N)c1CN1CCc2ccccc2C1	-0.9%	-34%	3%	10%	-7%	-9%	0%	0%
O=C(Nc1ccc(F)c(F)c1)c1oc2ccccc2c1NC(=O)C1CCCO1 (stereo unspecified)	.	.	-9%	0%	1%	.	20%	1%[46.1 µM]
S=C(Nc1ccccc1)N1CCn2c1nc1ccccc12	-1.9%	-1%	.	-4%	5%	-14%	-8%	-21%
Cc1c(Cl)cccc1NC(=O)Nc1cccnc1	.	8%	12%	-2%[46.1 µM]	-6%	.	5%	-2%[46.1 µM]
CCC1CN(C(=O)N2CCC(C(=O)NCc3ccc(N(C)C)cc3)CC2)c2ccccc2O1 (stereo unspecified)	-6.6%	.	-23%	-12%[46.1 µM]	.	8%	.	.

Compound activity as filed in PubChem BioAssay.
